KCNQ2 enhance – potentiators of rat KCNQ2 potassium channel; CHO-K1 KCNQ2, FluxOR thallium flux fluorescence; hits give high values; actives 0.54% (n = 310,000); Potassium voltage-gated channel subfamily KQT member 2 (Rattus norvegicus), O88943; B-score at 10 µM;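 active = fluorescence ratio B-score at least 3 SD of library B-scores, with initial fluorescence B-score within 3 SD, cut at about 5.3 in these data; same plate scores as AID 2156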;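 also: B-score of peak minus minimum over baseline fluorescence ratio after K+ and Tl+ stimulus; positive B-score means potentiation of KCNQ2 with more thallium influx and brighter signal; only the inactives scoring about 0 or higher are listed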
Target sequence (O88943 whole entry, looked up): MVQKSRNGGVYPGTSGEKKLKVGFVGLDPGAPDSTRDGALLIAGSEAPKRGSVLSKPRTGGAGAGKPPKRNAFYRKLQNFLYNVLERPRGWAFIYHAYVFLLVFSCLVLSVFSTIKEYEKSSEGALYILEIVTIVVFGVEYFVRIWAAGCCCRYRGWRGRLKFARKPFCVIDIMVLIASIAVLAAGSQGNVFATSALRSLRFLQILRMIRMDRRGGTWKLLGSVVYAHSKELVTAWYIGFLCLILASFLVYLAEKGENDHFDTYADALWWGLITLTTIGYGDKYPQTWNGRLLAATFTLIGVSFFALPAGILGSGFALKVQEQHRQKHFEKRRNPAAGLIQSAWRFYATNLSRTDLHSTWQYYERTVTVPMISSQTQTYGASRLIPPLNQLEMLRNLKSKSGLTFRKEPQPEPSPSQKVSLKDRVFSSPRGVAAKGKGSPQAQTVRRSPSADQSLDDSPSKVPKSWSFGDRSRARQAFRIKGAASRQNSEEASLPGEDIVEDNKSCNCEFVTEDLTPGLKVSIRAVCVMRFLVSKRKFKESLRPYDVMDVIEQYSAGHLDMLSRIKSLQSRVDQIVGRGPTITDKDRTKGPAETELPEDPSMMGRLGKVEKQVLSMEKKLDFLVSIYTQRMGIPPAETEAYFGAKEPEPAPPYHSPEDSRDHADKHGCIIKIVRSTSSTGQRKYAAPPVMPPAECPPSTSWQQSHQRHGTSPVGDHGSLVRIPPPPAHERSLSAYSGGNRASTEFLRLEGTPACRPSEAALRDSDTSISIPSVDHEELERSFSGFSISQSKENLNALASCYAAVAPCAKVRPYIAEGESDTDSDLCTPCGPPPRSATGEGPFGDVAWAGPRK
KCNQ2 enhance baseline – also measured in KCNQ2 enhance; calls as there; B-score; compound at 10 µM; measured here: initial fluorescence intensity artifact check;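 brightness before thallium and not channel activity; 0 = typical well and far values either way flag optical interference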
Starred values were filed as active, the others as inactive.

SMILES | KCNQ2 enhance | KCNQ2 enhance baseline
Cc1cccc(NC(=O)NCCN2CCN(c3ccccc3)CC2)c1C | 1.5 | -0.43
COc1ccc(C(C(=O)NC(C)(C)C)N(C(=O)Cn2nnc3ccccc32)c2ccc(C(C)=O)cc2)cc1O (stereo not given) | 0.5 | -0.01
COc1cc(N2C(=O)c3ccccc3C2=O)c(Cl)cc1C(=O)OCC(=O)NCc1ccco1 | 0.42 | -0.12
CCOc1ccc(NC(=O)C2CCN(S(=O)(=O)CC)CC2)cc1 | 0.49 | -0.42
Cc1ccccc1-c1nnn(CC(=O)N2CCN(S(=O)(=O)c3ccc(Cl)cc3)CC2)n1 | 2.8 | 0.48
Cc1c(C(=O)Nc2ccccc2C(=O)N2CCCC2)cccc1[N+](=O)[O-] | 0.74 | 1.4
CCC(=O)Nc1ccc(Cl)c(NC(=O)c2ccccc2OC)c1 | 0.14 | -0.87
Cc1ccc(CC(=O)NCCN2CCOCC2)cc1 | 1.1 | 0.09
CCCNC(=O)c1ccccc1C(=O)NCCC | 1.9 | -0.43
CCc1ccc(NC(=O)C2CCCN(S(C)(=O)=O)C2)cc1 (stereo not given) | 0.32 | 0.57
COC(=O)c1ccc(S(=O)(=O)N2CCCCCC2)n1C | 1.9 | 0.36
Brc1ccc(C2=Nc3cccc4cccc(c34)N2)o1 | 1.3 | -0.37

Next part, starting with the last 2 of the part before.
SMILES | KCNQ2 enhance | KCNQ2 enhance baseline
COC(=O)c1ccc(S(=O)(=O)N2CCCCCC2)n1C | 1.9 | 0.36
Brc1ccc(C2=Nc3cccc4cccc(c34)N2)o1 | 1.3 | -0.37
COc1ccc(N=C2SC(C(=O)N3CCN(c4ccccc4)CC3)CC(=O)N2C)cc1 (stereo not given) | 1.3 | -1.1
N#Cc1ccccc1OCC(=O)OCCCOC(=O)COc1ccccc1C#N | 0.71 | -0.88
CCOc1ccc(-c2c(=O)n(O)c3ccccc3[n+]2[O-])cc1 | 1.3 | 0.83
Cc1cc(C[n+]2ncsc2N)c2ncccc2c1 | 1.1 | -0.08
COc1ccc(OC)c(Nc2nc(N)c([N+](=O)[O-])c(NC3CCCCC3)n2)c1 | 0.79 | 0.18
CCNc1ccc(C(=O)OCC)cc1NC(=O)c1cccc(S(=O)(=O)N(C)c2ccccc2)c1 | 0.09 | 2.8
COc1cccc(C(=O)NNc2nc(C)cc(C)n2)c1 | 0.39 | 0.15
O=c1[nH]c2ccc(Cl)cc2c(-c2ccccc2)c1N1CCOCC1 | 1.6 | 1.6
Cn1c(=O)c(=O)n(C)c2cc(N3CCOCC3)c(NS(=O)(=O)c3ccc(Br)cc3)cc21 | 2.6 | -2.5
C=CCNC(=O)COc1ccc(N(C)S(=O)(=O)c2ccc(NC(C)=O)cc2)cc1 | 0.05 | -0.68
Cc1nn(CC(=O)N(C)C)c(=O)c2ccccc12 | 0.11 | -0.24
Cc1ccc2c(CC(=O)O)coc2c1C | 0.74 | 1.2
O=C(CCC(=O)N1CCN(S(=O)(=O)c2ccc(Cl)cc2)CC1)Nc1cccc(Br)c1 | 1.2 | 1.1
Cc1ccc2nc(SCC(=O)Nc3ccc(Cl)cc3)nc(=O)n2c1 | 0.05 | -0.25
CCOC(=O)c1ccccc1NC(=O)COC(=O)CSC(C)C(=O)Nc1cc(C)on1 (stereo not given) | 0.63 | 0.05
Cc1c(Cl)cccc1NC(=O)CC1Sc2ccccc2NC1=O (stereo not given) | 0.01 | -2.7
NC(=O)CSc1ccc(Br)cc1 | 0.54 | -0.01
CN(C)CCOCCP(=O)(c1ccccc1)c1ccccc1 | 0.82 | 0.63
CCOc1cccc(/C=N/Nc2ccc(S(=O)(=O)N(CC)CC)cn2)c1O | 2.3 | 0.11
COc1ccc(OC)c(Nc2ccc(Nc3cc(OC)ccc3OC)nn2)c1 | 0.46 | -1.4
CSc1nc(=O)n2cccc(C)c2n1 | 0.83 | -0.67
C/C(=N/OC(=O)c1ccc(C)cc1)c1cccs1 | 0.48 | -1.1
CCCOc1ccc(C(=O)Nc2cccnc2)cc1 | 2.6 | -1.1
Cc1nn(-c2ccccc2)c(-c2ccccc2[N+](=O)[O-])c1C(=O)O | 0.01 | -0.8

Ordered by molecular weight (highest first): part of the list above
SMILES | KCNQ2 enhance | KCNQ2 enhance baseline
O=C(CCC(=O)N1CCN(S(=O)(=O)c2ccc(Cl)cc2)CC1)Nc1cccc(Br)c1 | 1.2 | 1.1
CCOc1cccc(/C=N/Nc2ccc(S(=O)(=O)N(CC)CC)cn2)c1O | 2.3 | 0.11
COc1ccc(OC)c(Nc2ccc(Nc3cc(OC)ccc3OC)nn2)c1 | 0.46 | -1.4
Cc1c(Cl)cccc1NC(=O)CC1Sc2ccccc2NC1=O (stereo not given) | 0.01 | -2.7
CN(C)CCOCCP(=O)(c1ccccc1)c1ccccc1 | 0.82 | 0.63
C/C(=N/OC(=O)c1ccc(C)cc1)c1cccs1 | 0.48 | -1.1

(further entries)
SMILES | KCNQ2 enhance | KCNQ2 enhance baseline
CCCCn1c(SCC(=O)Nc2cc(C)on2)nnc1-c1ccncc1 | 1.7 | 1.9
Cc1ccc(NC(=O)CCNS(=O)(=O)c2ccc(Br)s2)cc1 | 0.81 | -2.2
Cc1ccc(C(CC(=O)NCc2ccco2)c2ccccc2)c(O)c1 (stereo not given) | 2 | -0.2
Cc1c(C(=O)NC(=S)Nc2cccnc2)cccc1[N+](=O)[O-] | 1.2 | -0.63
CCCn1c(-c2cccs2)nc2c1c(=O)[nH]c(=O)n2Cc1ccccc1 | 0.76 | 0.23
CCC(OC(=O)c1ccco1)C(=O)NCc1ccco1 (stereo not given) | 0.49 | 0.12
Cc1cc2c(c(=O)n1Cc1ccco1)C(c1cccnc1)C(C#N)=C(N)O2 (stereo not given) | 0.61 | -0.06
Cn1c(SCC(=O)c2cccs2)nnc1-c1ccco1 | 0.04 | -0.84
Cc1nc2c(C#N)cnn2c2c1CCNN2C | 1 | -0.76
COC(=O)c1cccc(NC(=O)c2onc3c2CCCC3)c1 | 0.59 | -0.71
COC(=O)Nc1cc(C)nc2ccccc12 | 0.78 | 0.14
CN(C)S(=O)(=O)N(CC(=O)Nc1cccc(F)c1)c1ccccc1 | 0.68 | -1
CC(C)(C)n1nnnc1C(c1cc2cc3c(cc2[nH]c1=O)OCCO3)N1CCSCC1 (stereo not given) | 0.02 | -1.1
COc1ccc(CCNC(=O)c2ccccc2SC)cc1 | 0.41 | -0.02
Cc1cccc(C(=O)Oc2ccc(/C=N/NC(=O)c3ccc(O)cc3)cc2)c1 | 0.77 | 0.75
C/C(=N\NC(=O)c1ccc(CSc2nncn2C)cc1)c1cccs1 | 0.67 | -0.22
N#Cc1cc(S(=O)(=O)c2ccc(Cl)cc2)c(N)[nH]c1=O | 0.64 | -0.55
COC(=O)c1ccc(NC(C(=O)OC)C(C)C)c([N+](=O)[O-])c1 (stereo not given) | 1.9 | -0.69
O=c1/c(=C/c2ccc([N+](=O)[O-])cc2)sc2n1CCCN=2 | 0.04 | 0.05
CC(C)c1ccc(OCC(=O)NC2CCCC2)cc1 | 0.85 | 0
Cc1ccc(/C=N/NC(=O)CNC(=O)Cc2ccccc2)o1 | 1.1 | -0.1
O=C(NCc1cccnc1)NC1(c2ccccc2)CC1 | 1.1 | 0.78
COc1ccccc1N1CCN(C2CC(=O)N(c3ccc(Cl)cc3)C2=O)CC1 (stereo not given) | 0.21 | 0.99
N#C/C(=C(O)\C=C\c1ccccc1)c1nc2ccccc2[nH]1 | 0.85 | -0.17

3 compounds out of the list above, ordered by the number in KCNQ2 enhance, low to high:
SMILES | KCNQ2 enhance | KCNQ2 enhance baseline
O=c1/c(=C/c2ccc([N+](=O)[O-])cc2)sc2n1CCCN=2 | 0.04 | 0.05
C/C(=N\NC(=O)c1ccc(CSc2nncn2C)cc1)c1cccs1 | 0.67 | -0.22
Cc1ccc(/C=N/NC(=O)CNC(=O)Cc2ccccc2)o1 | 1.1 | -0.1

The listing picks up, repeating the two entries before the break.
SMILES | KCNQ2 enhance | KCNQ2 enhance baseline
COc1ccccc1N1CCN(C2CC(=O)N(c3ccc(Cl)cc3)C2=O)CC1 (stereo not given) | 0.21 | 0.99
N#C/C(=C(O)\C=C\c1ccccc1)c1nc2ccccc2[nH]1 | 0.85 | -0.17
CCC/C(O)=C1\C(=O)CC(c2ccccc2)CC1=NC(C)C(=O)O (stereo not given) | 0.03 | 0.9
CC1(C(=O)N2CCC(CO)(Cc3cccc(C(F)(F)F)c3)CC2)CC1 | 0.7 | 0.41
O=C(NCc1ccccc1)c1cccc(F)c1F | 0.06 | -1.2
COc1cc([N+](=O)[O-])ccc1N=Nc1c(N)[nH]n(-c2ccccc2)c1=O | 1.3 | -1.5
FC(F)(F)c1cnc(Oc2ccccc2-c2nnco2)c(Cl)c1 | 7.4* | -3.1*
COc1ccc(-c2cc(C(F)(F)F)nc(-n3ccnc3)n2)cc1 | 0.06 | -0.07
O=C(CSc1nnc(NCc2ccccc2)s1)N1CCOCC1 | 0.03 | -1.2
Cc1ccc(NC(=O)CNC2CCCCC2)cc1Cl | 3.1 | -0.84
O=C(COC(=O)c1ccc(O)cc1)Nc1ccc(N2CCCCC2)cc1 | 0.35 | -0.86
NS(=O)(=O)c1ccc(CCNC(=O)C2COc3ccccc3O2)cc1 (stereo not given) | 1.6 | 0.03
CCOc1ccc(N/C=C\C(=O)c2ccc3c(c2)OCO3)cc1 | 0.7 | -1.6
Cn1c(SCc2cccc(C(F)(F)F)c2)nnc1-c1ccco1 | 0.2 | -3
COc1ccc2cc(CCNC(=O)C3CC3)c(=O)[nH]c2c1 | 2.3 | -0.02
CCCCCCCCCCOC(=O)Cn1c(COc2cccc(C)c2)[n+](C)c2ccccc21 | 0.86 | 16
Cc1ccc(NC(=O)COC(=O)c2sccc2C)cc1S(=O)(=O)N1CCOCC1 | 0.86 | 1.2
CC(=O)Oc1ccc(-c2cccc(C(=O)NCCCO)c2)cc1 | 0.26 | 0.02
O=[N+]([O-])c1cccc(N(CC(O)CN2CCCCC2)S(=O)(=O)c2ccccc2)c1 (stereo not given) | 0.8 | -1
CC1(C)Oc2ccc(C(=O)NC3CCCC3)cc2N(CC(=O)N2CCOCC2)C1=O | 1.9 | 0.86
COc1ccc(CCNC(=O)CNCC(c2ccccc2)N(C)C)cc1OC (stereo not given) | 0.9 | 3.3
O=C(CSCCc1ccccn1)Nc1cccnc1 | 0.09 | -2.3
O=C(Nc1ccccc1N1CCCC1)c1ccc2c(c1)OCO2 | 0.37 | 2.2
COCc1cc(C)nc(OCC(=O)N/N=C/c2ccco2)c1C#N | 0.06 | 0.05
O=C(OCC(=O)N1CCN(C(=O)c2ccco2)CC1)c1ccc(S(=O)(=O)N2CCCCC2)cc1 | 0.65 | 1.5
C=CCn1c(C)cc(C(=O)Cn2nc(C(=O)O)c3ccccc3c2=O)c1C | 0.74 | 0.15
CCCn1cc(NC(=O)c2cc(-c3ccccc3)on2)cn1 | 5.7* | 1.4*
COc1ccccc1N(CC(=O)NC1CCCC1)S(=O)(=O)c1ccc(C)cc1 | 1.4 | -1.1
Cc1nn2cc(-c3ccc(Cl)cc3)cnc2c1Cl | 0.49 | -0.44
CCCCC(=O)Nc1nc2ccc(C(=O)OC)cc2s1 | 1.3 | 0.72
CCC(C)c1ccccc1NC(=O)COC(=O)c1ccc(N2CCCC2)c([N+](=O)[O-])c1 (stereo not given) | 0.03 | -0.52
COc1ccc(C2/C(=C(/O)c3ccccc3)C(=O)C(=O)N2CO)cc1 (stereo not given) | 1 | 0.4
CC(C)(C)OC(=O)N/N=C/c1ccc(C(=O)O)cc1 | 0.76 | -0.01
CC(Cc1cccnc1)NC(=O)c1cc(COc2c(F)cccc2F)on1 (stereo not given) | 0.28 | -0.26
O=C(Nc1cccc(F)c1)NC1(C(=O)N2CCN3CCCC3C2)CCCCC1 (stereo not given) | 0.33 | -0.84
NC(=O)COc1cccc2cccnc12 | 0.85 | -0.01
Cc1cc(NC(=O)CCN2CCN(Cc3ccccc3)CC2)ccc1Br | 0.5 | -0.73
O=C(N=Nc1c(O)[nH]c2ccccc12)c1cccc(S(=O)(=O)N2CCCCC2)c1 | 0.43 | -0.96
Cc1cc(OCC(=O)Nc2ccc(CN3CCOCC3)cc2)ccc1Cl | 1.1 | 0.3
CCOCCCNC(=O)CCCOc1ccccc1 | 0.62 | -0.47
O=C(c1ccc(F)cc1)N1C2CCC1CC(O)(c1ccc(F)cc1)C2 (stereo not given) | 0.97 | -2.7
Cc1cnnn1-c1cccc([N+](=O)[O-])c1 | 0.07 | -0.62
CCOc1ccc(-n2nc3c(=O)[nH]nc(C)c3c2C)cc1 | 2.4 | -3
CCOC(=O)Cc1csc(NC(=O)C2C3C=CC(C3)C2C(=O)O)n1 (stereo not given) | 0.54 | 0.72
O=S(=O)(c1ccsc1)N1CC=C(c2ccccc2)CC1 | 0.4 | -2.5
O=C(NC1CCCCC1)c1cccc(Cn2cc(Cl)cn2)c1 | 0.45 | 1.9
CC(=O)Nc1ccc(Oc2ccc3c(c2)C(=O)NC3=O)cc1 | 0.25 | -0.99
O=C(Nc1ccc2c(c1)OCO2)c1ccncc1 | 0.49 | 1.4
c1ccc(C2=NNC(=NC3CC3)SC2)cc1 | 1.8 | -0.88
CCOc1ccc2nc(NC(=O)CSc3ccc(Cl)cc3)sc2c1 | 1.3 | 0.01
CCn1ncc(/C=C/C(=O)C2CC2)c1C | 0.07 | -0.2
Cc1cc(=O)oc2cc(NC(=O)c3ccccc3OC(F)F)ccc12 | 0.89 | 0.48
COC(=O)c1cccc(N/C=C(\[N+](=O)[O-])S(=O)(=O)c2ccccc2)c1 | 1.6 | -1.8
CC(C)(C)NC(=O)C1CCCN(S(=O)(=O)c2cccc3cccnc23)C1 (stereo not given) | 0.57 | -1.7
CCOC(=O)C1=C(C)N=c2s/c(=C/c3ccc(OCC(=O)O)cc3)c(=O)n2C1c1ccc(F)cc1 (stereo not given) | 0.28 | -0.9
O=C(CCNC(=O)c1ccc(Br)cc1)Nc1cc(Cl)ccc1-n1cncn1 | 0.1 | 0.69
CC(C)(C)NS(=O)(=O)c1ccc(-c2csnn2)s1 | 1.5 | -2.9

The list is partial (hit frequency here may not be typical).
